CDC25B CDK2 inh = human CDC25B-CDK2/CyclinA binding inhibition. P30305+P24941. HTRF CDC25B-CDK2/CyclinA binding, anti-His/anti-Flag; hits give high values. z-score (test concentration not listed). 0.72% of 94,000 active. AID 1259370;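 note: score is relative to mean and SD of negative controls; strong numbers were not always called active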
HIV TAR-Tat = HIV-1 TAR-Tat binding disruption | z-score (concentration not given with the values) | HIV-1 TAR RNA, Tat peptide displacement FRET; hits give high values | AID 1259389 | 0.6% of 100,000 active;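 note: score is relative to mean and SD of negative controls; some compounds called inactive have numbers as strong as hits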
The depositor's hits bear a star; / = no result given.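 Rule for the calls: active = z-score from 3 up in half or more of its runs; inactive = the rest.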

No.	compound	HIV TAR-Tat	CDC25B CDK2 inh
1	O=C(O)C1CSC(c2ccc3c(c2)OCO3)N1 (stereo not drawn)	1	-2.4
2	c1cc2ccc(-c3ccc4cccc-4cc3)ccc-2c1	/	0
3	C=CCN1C(=O)C2(/C(=C(/O)c3ccc(F)cc3)C(=O)C(=O)N2CCCN(C)C)c2ccccc21 (stereo not drawn)	2.9	-0.31
4	O=C(CN1C(=O)CSc2cccn2-c2ccccc21)N1CCN(Cc2ccccc2)CC1	1.3	/
5	CCOc1cc(C2CC(=O)Nc3cc4c(cc32)OCO4)ccc1OC(C)C (stereo not drawn)	2	-1.4
6	C1=C(N2CCC(Cc3ccccc3)CC2)Cc2ccccc21	/	-2.3
7	CSC1=NCCN1S(=O)(=O)c1ccccc1	-0.43	0
8	COC(=O)CCS(=O)(=O)c1cccc2c(S(=O)(=O)CCC(=O)OC)cccc12	2	-1.5

No.	compound	HIV TAR-Tat	CDC25B CDK2 inh
9	O=C(O)CCCCC1CCSS1 (stereo not drawn)	2.3	/
10	N#Cc1c(O)c2ccccc2[nH]c1=O	-1.3	-0.19
11	CCOc1cc2c(cc1OCC)C1C(C(=O)NC3CCCC(C)C3C)c3ccccc3C(=O)N1CC2 (stereo not drawn)	-0.18	-2.7
12	O=C(NC1CCCC1)C1CCCN1S(=O)(=O)c1cccc2cccnc12 (stereo not drawn)	/	-1.4
13	O=C(NCc1ccccc1)Nc1nc2c(s1)CCCCCC2	-0.23	/
14	CCCCCn1c(CN2CC(C)OC(C)C2)nc2c1c(=O)n(C)c(=O)n2C (stereo not drawn)	-0.23	-0.1
15	CCn1ncc(C2=NOC(C(=O)N3CCN(C(=O)c4ccco4)CC3)C2)c1C (stereo not drawn)	2.3	-0.81
16	Cc1c(C(=O)OCC2CCCO2)[nH]c2c1C(=O)CC(c1ccc(N(C)C)cc1)C2 (stereo not drawn)	0.86	0.22

No.	compound	HIV TAR-Tat	CDC25B CDK2 inh
17	CCCc1nnc(NC(=O)c2cc(=O)c3cc(Cl)ccc3o2)s1	-2.8	-1.2
18	COc1cc(Br)c(CCn2c(=O)[nH]c(=O)c3sc(N)nc32)cc1OC	28*	0.1
19	Cc1c(C(=O)C(=O)NCC(C)C)c2ccccc2n1C	/	-2.5
20	COc1ccccc1Nc1nc2ccc(Cl)cc2n2nnnc12	0.51	-3.8
21	Cc1ccc(S(=O)(=O)[C@H]2CS(=O)(=O)C[C@@H]2N(C)Cc2ccccc2)cc1	-2.8	-0.87
22	Cc1cc(NC(=O)CSc2nc3ccccc3c3nc(CCn4c(C)nc5ccccc54)nn23)n[nH]1	1.2	/
23	Cc1nnc(SCC(=O)N(C)C2CCCCC2)s1	1.1	-0.82
24	COc1cccc(CCN[C@H]2CS(=O)(=O)C[C@@H]2S(=O)(=O)c2ccccc2)c1	-0.71	-1.2

Gathered by group, the compounds so far containing an NH in an aromatic ring
No.	compound	HIV TAR-Tat	CDC25B CDK2 inh
10	N#Cc1c(O)c2ccccc2[nH]c1=O	-1.3	-0.19
16	Cc1c(C(=O)OCC2CCCO2)[nH]c2c1C(=O)CC(c1ccc(N(C)C)cc1)C2 (stereo not drawn)	0.86	0.22
18	COc1cc(Br)c(CCn2c(=O)[nH]c(=O)c3sc(N)nc32)cc1OC	28*	0.1
22	Cc1cc(NC(=O)CSc2nc3ccccc3c3nc(CCn4c(C)nc5ccccc54)nn23)n[nH]1	1.2	/

(listing goes on)
No.	compound	HIV TAR-Tat	CDC25B CDK2 inh
25	Cc1cc(Cl)ccc1N=C(N)N=C(N)N	/	-0.78
26	CCN(CC)CCCNc1cnnc2c(Cl)cccc12	0.08	/
27	O=c1c2ccccc2nc(Cc2ccccc2)n1-c1cccc2ccccc12	/	-18
28	CCOC(=O)c1sc(C)c2c(=O)[nH]nnc12	/	-1.1
29	O=[N+]([O-])c1c(Nc2ccccc2)ccc2nsnc12	/	-1.3
30	Cc1cc(-c2ccccc2)c2c(C)c(C)sc2n1	0.06	1.3
31	O=C(c1ccco1)N1CCN(C(=O)C(c2ccccc2)N2Cc3ccccc3C2=O)CC1 (stereo not drawn)	-0.31	/
32	CC(=O)N1N=C(CSc2nc(C)cc(C)n2)OC1c1ccc(F)cc1 (stereo not drawn)	0.42	/

No.	compound	HIV TAR-Tat	CDC25B CDK2 inh
33	Cc1[nH]c(=O)c(C#N)cc1-c1csc(-c2ccccc2)n1	/	-2.1
34	Cc1ccccc1CN1CCC(N(C)Cc2ccccc2)CC1	/	-1.2
35	CCCN1CCN(C(=O)CN2CCSc3ccccc32)CC1	0.6	/
36	Clc1ccccc1COc1ccccc1-c1nnc(-c2ccccc2)o1	-0.01	/
37	CC(=O)NCCNC(=O)CCC1=NS(=O)(=O)c2ccccc2N1	0.06	/
38	O=C1CC(c2ccc(Br)cc2)N=C(NC(=O)c2cccs2)N1 (stereo not drawn)	0.42	/
39	Cc1ccc2oc3c(c(=O)c2c1)C(c1ccc(OCC(N)=O)cc1)N(Cc1ccc2c(c1)OCO2)C3=O (stereo not drawn)	-0.23	-1.2
40	Cc1ccc(-c2onc(C)c2C)cc1S(=O)(=O)Nc1cccc(C)c1C	-0.02	/

No.	compound	HIV TAR-Tat	CDC25B CDK2 inh
41	O=S(=O)(Nc1ccc(Cl)cn1)c1cc(-c2noc(C3CC3)n2)cs1	0.59	/
42	CN1CCN(C(=O)CCCN2C(=O)CCn3nc(-c4cn(C)c5ccccc45)cc32)CC1	0.27	/
43	O=C(Nc1nnc(SCc2cc(=O)c3cccc(F)c3[nH]2)s1)c1ccco1	1.4	/
44	Cc1ccc(-n2nc(C(=O)O)c(C)c(C#N)c2=O)cc1C	1.9	0.86
45	CN(C(=O)c1cc2c(s1)-c1ccccc1S(=O)(=O)C2)c1ccccc1	-0.47	-1.6
46	COc1ccc(OC)c(-c2noc(CSc3nnc(-c4ccccc4)n3C)n2)c1	2.5	-1.7
47	CN(c1ccccc1)S(=O)(=O)c1cc2c3c(c1)CCN3C(=O)CC2	1.4	/
48	O=C(CSc1ncnc2ccccc12)Nc1ccc(F)cc1F	/	-2.9

In a second layout: 3 of the compounds above
Screens in order – HIV TAR-Tat, CDC25B CDK2 inh
28) CCOC(=O)c1sc(C)c2c(=O)[nH]nnc12
 : /, -1.1
12) O=C(NC1CCCC1)C1CCCN1S(=O)(=O)c1cccc2cccnc12 (stereo not drawn)
 : /, -1.4
5) CCOc1cc(C2CC(=O)Nc3cc4c(cc32)OCO4)ccc1OC(C)C (stereo not drawn)
 : 2, -1.4

More records follow.
No.	compound	HIV TAR-Tat	CDC25B CDK2 inh
49	Cc1cc2n(n1)CCCN2C(=O)Nc1ccc(Br)cc1	2.1	/
50	Cn1c(Cn2c(=O)sc3ccccc32)nnc1SCC(=O)Nc1ccc(Br)cc1	/	-0.57
51	COc1cc(Cl)c(NC2c3ncccc3C(=O)N2c2cc(OC)ccc2OC)c(OC)c1 (stereo not drawn)	-0.75	/
52	CC(=O)Nc1c2n(c3ccc(F)cc13)CC(C)(C(=O)NC1CCCC1)N(C1CCCCC1)C2=O (stereo not drawn)	1.7	/
53	Clc1ccc(-c2cnc3ccccc3n2)cc1Cl	/	-0.5
54	CCc1cc2c3c([nH]c2cc1S(=O)(=O)N1CCOCC1)CC(C)(C)CC3=O	0.99	/
55	CCOc1ccc(N(C(=O)c2ccco2)S(=O)(=O)c2ccc3c(c2)oc(=O)n3C)cc1	-2.4	-2.4
56	COc1ccc2c(c1)c(=O)oc1cc3oc4c(c3cc12)CCCC4	3.7*	-0.98

No.	compound	HIV TAR-Tat	CDC25B CDK2 inh
57	CC(C)c1ccc(CN(C(=O)c2cc(-c3ccc(Cl)cc3)on2)C2CCS(=O)(=O)C2)cc1 (stereo not drawn)	1.5	-0.09
58	CN1CCN(c2nc3c(c(=O)[nH]c(=O)n3C)n2CCSc2nnnn2-c2ccccc2)CC1	/	1.5
59	Cc1n[nH]c(=O)c(N)c1[N+](=O)[O-]	/	-2.2
60	O=C(Nc1noc2ccccc12)c1cccc(Cl)c1	0.78	-1.7
61	CCCNS(=O)(=O)c1csc(C(N)=O)c1	2	/
62	CCSc1nc(=O)c2c(n1C)NC(=O)CC2c1ccc(C(=O)OC)cc1 (stereo not drawn)	-0.66	-1.2
63	O=C(CSc1nnc(-c2ccccc2)c(-c2ccccc2)n1)Nc1nccs1	1.1	/
64	Clc1ccc(Cc2nn3c(-c4ccncc4)nnc3s2)cc1	1.3	-0.86

No.	compound	HIV TAR-Tat	CDC25B CDK2 inh
65	ONC(=Nc1ccc2c(c1)OCO2)C(=Nc1ccc2c(c1)OCO2)NO	/	20*
66	CS(=O)(=O)c1ccc2nc(Nc3nc4cc5c(cc4s3)OCO5)sc2c1	/	-2.4
67	CC1=CC(C)(C)Nc2cc(C)c(C)cc21	/	-1.4
68	CC(O)CNc1ncnc2c1cnn2-c1ccc(F)cc1 (stereo not drawn)	2.2	/
69	S=c1[nH]nc(Cc2n[nH]c(=S)n2-c2ccccc2)n1-c1ccccc1	/	-2
70	CC(C)CNC(=O)Cn1nc(C(F)(F)F)c2c1CCCC2	0.45	-1.4
71	COc1cc(C2c3c(oc4ccc(F)cc4c3=O)C(=O)N2c2nccs2)ccc1OCCC(C)C (stereo not drawn)	-0.96	-0.42
72	Cc1ccc(C)c(S(=O)(=O)Nc2cccc(C3NC(=O)CS3)c2)c1 (stereo not drawn)	0.91	/

No.	compound	HIV TAR-Tat	CDC25B CDK2 inh
73	Cc1c(C(=O)NC2CCCCC2)sc2ncn(CC(=O)N3CC(C)CC(C)C3)c(=O)c12 (stereo not drawn)	/	-1
74	CSc1nc2c(c(=O)n(C)c(=O)n2C)n1Cc1ccc(Cl)cc1	1.8	-1
75	CCOC(=O)c1cc(CC)sc1NC(=S)Nc1ccccc1C(F)(F)F	/	0.14
76	CCCOc1ccc(C2C3=C(CC(C)(C)CC3=O)Nc3cc(OC)c(OC)cc32)cc1 (stereo not drawn)	1.6	-2.8
77	O=C(CSc1nc(-c2ccc(Cl)cc2)nc2cc(=O)[nH]n12)Oc1ccccc1	1.2	/
78	CC(C)(C)NC(=O)c1ccc2c(c1)CCN2S(=O)(=O)c1ccc(Br)cc1	0.59	-1.5
79	O=C(NCc1c(-c2ccccc2)nc2n1CCS2)c1ccc2c(c1)OCCO2	2.6	/
80	Cc1cccc(-n2ccc(=O)c(C(=O)Nc3c(C(=O)Nc4ccccc4)oc4ccccc34)n2)c1	1.8	0.53

Filtered by structure, the compounds so far containing a nitro group on carbon.
No.	compound	HIV TAR-Tat	CDC25B CDK2 inh
29	O=[N+]([O-])c1c(Nc2ccccc2)ccc2nsnc12	/	-1.3
59	Cc1n[nH]c(=O)c(N)c1[N+](=O)[O-]	/	-2.2

One compound at a time, as listed above.
Profile of CCOC(=O)c1cc(CC)sc1NC(=S)Nc1ccccc1C(F)(F)F = HIV TAR-Tat: /; CDC25B CDK2 inh: 0.14
Profile of CCCOc1ccc(C2C3=C(CC(C)(C)CC3=O)Nc3cc(OC)c(OC)cc32)cc1 (stereo not drawn) = HIV TAR-Tat: 1.6; CDC25B CDK2 inh: -2.8

More entries
No.	compound	HIV TAR-Tat	CDC25B CDK2 inh
81	Cc1nn(C)c(C)c1S(=O)(=O)N(CC(=O)NCc1ccc2c(c1)OCO2)c1ccc(C(C)C)cc1	/	-1.9
82	O=C(c1ccc2cccc(O)c2n1)N1CCN(c2cccc(Cl)c2)CC1	0.71	-0.29
83	O=C(SCc1c(Cl)cccc1Cl)c1ccc([N+](=O)[O-])o1	/	-1.8
84	NC(=O)c1nc(-c2ccc(Br)cc2)nc2c1[nH]c(=O)n2-c1ccc(F)cc1	0.83	/
85	CCN(CC)c1ccc(C2C(C(=O)OC)=C(C)Nc3ncnn32)cc1 (stereo not drawn)	-1.6	0.76
86	COc1ccc2c(c1)c(N1CCCC1=O)c(C(=O)NC1CCC(C)CC1)n2C (stereo not drawn)	0.74	/
87	COC(=O)c1sc2ccccc2c1NC(=O)c1cc2ccccc2cc1OC	/	-5.1
88	Cn1ccnc1SCC(=O)Nc1cccc(Br)c1	2.9	-1.2

No.	compound	HIV TAR-Tat	CDC25B CDK2 inh
89	COC(=O)C1=C(C)NC2=C(C(=O)CC(c3ccc(OC)cc3)C2)C1c1ccc2c(c1)OCO2 (stereo not drawn)	0.16	-1.4
90	Cc1ccc(NS(=O)(=O)c2ccc(-c3ccc(=O)[nH]n3)o2)c(C)c1	1.7	/
91	COCCNC(=O)Cn1cnc2sc(C)c(S(=O)(=O)N3CCC(C)CC3)c2c1=O	/	-0.49
92	CC(C)C(=O)Nc1nnc(S(=O)(=O)N2c3ccccc3CC2C)s1 (stereo not drawn)	-0.16	-0.29
93	CCCCNS(=O)(=O)c1cc2c3c(c1)CC(=O)N3CCC2	1.3	/
94	COc1cc(OC)c(NC(=O)Nc2cn(CC(C)C)c(=O)c3ccccc23)cc1Cl	1.3	/
95	CCOC(=O)c1c(C)oc2ccc(NS(=O)(=O)c3cccs3)cc12	1.6	-0.98
96	Cc1cc2nc(COc3ccc(C)c(C)c3)cc(=O)n2o1	-2.9	-3

No.	compound	HIV TAR-Tat	CDC25B CDK2 inh
97	O=c1c2c(nc3nc(COc4ccccc4)[nH]n13)CCC2	1.5	0.59
98	O=C(NNC(=O)c1cc(OCC(F)(F)F)ccc1OCC(F)(F)F)c1ccco1	/	-0.08
99	O=C1CC(c2ccccc2)Cc2nc(N3CCN(c4ccccc4)CC3)ncc21 (stereo not drawn)	0.78	-1.2
100	CCCOC(=O)COc1ccc2c(=O)c(Oc3cc(C)c(Cl)c(C)c3)coc2c1	-0.7	-0.09
101	Cc1nn(-c2nc3ccccc3s2)c2c1C(c1cccnc1)CC(=O)N2 (stereo not drawn)	2.2	/
102	O=C(Cn1ncn2nc(-c3ccco3)cc2c1=O)NCc1ccccc1Br	-0.91	-1.2
103	O=C(CSc1nc2ncccc2o1)NCC1CCCO1 (stereo not drawn)	0.05	/
104	Cc1ccc(CN(C(=O)c2cc(=O)c3cc(C)ccc3o2)C2CCS(=O)(=O)C2)cc1 (stereo not drawn)	-0.49	-0.76
105	Cn1cc(NC(=O)Nc2ccc(Cl)cn2)c2ccccc2c1=O	-2.7	/
106	CC1=C(C(=O)OC2CCCC2)C(c2ccc(C)cc2)C2=C(CCCC2=O)N1 (stereo not drawn)	-0.13	-0.31
107	CCc1nc2c(sc3cccc(F)c32)c(=O)[nH]1	0.92	1.1

From PubChem
